Source: PubChem BioAssay (Johns Hopkins Ion Channel Center)
KCNQ2 pot: KCNQ2 (rat) channel potentiation; O88943; CHO-K1 KCNQ2, FluxOR thallium flux fluorescence; active compounds read high; B-score at 10 µM; actives 0.54% (n = 310,000);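 active means fluorescence ratio B-score at least 3 SD of library B-scores, with initial fluorescence B-score within 3 SD, cut at about 5.3 in these data; same plate scores as AID 2156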;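 further: B-score of peak minus minimum over baseline fluorescence ratio after K+ and Tl+ stimulus; positive B-score means potentiation of KCNQ2 with more thallium influx and brighter signal; only the inactives scoring about 0 or higher are listed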
Target sequence (O88943 whole entry, looked up): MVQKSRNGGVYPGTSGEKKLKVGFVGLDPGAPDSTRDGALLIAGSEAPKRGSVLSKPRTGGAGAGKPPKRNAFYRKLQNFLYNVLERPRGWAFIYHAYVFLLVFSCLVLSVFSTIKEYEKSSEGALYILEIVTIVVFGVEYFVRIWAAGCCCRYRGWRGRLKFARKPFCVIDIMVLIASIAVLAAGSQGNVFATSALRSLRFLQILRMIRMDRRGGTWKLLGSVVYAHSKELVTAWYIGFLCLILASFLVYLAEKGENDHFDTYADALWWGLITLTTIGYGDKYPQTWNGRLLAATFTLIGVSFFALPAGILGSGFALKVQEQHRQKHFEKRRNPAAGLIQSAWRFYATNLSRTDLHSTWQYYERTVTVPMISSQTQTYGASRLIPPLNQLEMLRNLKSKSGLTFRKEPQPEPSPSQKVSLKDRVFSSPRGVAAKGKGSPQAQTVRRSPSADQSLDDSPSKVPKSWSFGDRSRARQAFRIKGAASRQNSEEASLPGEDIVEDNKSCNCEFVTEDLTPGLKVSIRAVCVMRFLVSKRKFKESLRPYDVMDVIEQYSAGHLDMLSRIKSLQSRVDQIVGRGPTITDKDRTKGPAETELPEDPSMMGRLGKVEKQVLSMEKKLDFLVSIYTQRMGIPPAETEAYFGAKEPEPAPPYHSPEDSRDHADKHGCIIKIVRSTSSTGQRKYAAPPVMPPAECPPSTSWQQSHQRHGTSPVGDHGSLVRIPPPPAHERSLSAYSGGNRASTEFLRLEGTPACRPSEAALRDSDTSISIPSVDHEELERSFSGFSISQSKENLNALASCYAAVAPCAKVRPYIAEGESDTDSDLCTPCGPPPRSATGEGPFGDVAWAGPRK
KCNQ2 pot baseline: also measured in KCNQ2 pot; calls as there; B-score; compound at 10 µM; measured here: initial fluorescence intensity artifact check;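 brightness before thallium and not channel activity; 0 = typical well and far values either way flag optical interference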
Active calls of the source: *. This is a subset; rates above refer to the full screens.

Screens in order – KCNQ2 pot, KCNQ2 pot baseline
Oc1ccc(/C=N/n2c3ccccc3c3ccccc32)cc1
  1.81, 0.14
Cc1cc(Cl)ccc1OCCCC(=O)OCC(=O)c1c(N)n(C)c(=O)n(C)c1=O
  0.7, -0.31
CCOc1ccc(-c2nc(-c3cccnc3)no2)cc1
  0.1, -3.85
CCc1c(C)nc2c(-c3ccccc3)c[nH]n2c1=O
  2.76, -1.03
COc1ccc(NC(=S)NNC(=O)Cn2nc(C(F)F)cc2C(F)F)cc1
  1.34, 0.02
Cc1cccc(OC(=O)c2ccc3nccnc3c2)c1
  2.18, -0.8
CN(C)C=Nc1ncc2c([nH]c3ccccc32)c1C#N
  1.55, 1.75
Cc1[nH]c(C)c(S(=O)(=O)NCc2ccco2)c1C(=O)N1CCCCC1
  1.98, -1.09
Cc1ccc(-c2cn(-c3ccccc3)c(SCC(N)=O)n2)cc1C
  0.05, -0.16
O=C(Nc1cc(Cl)ccc1N1CCOCC1)c1cnccn1
  0.03, -0.01

Structures listed so far with a halogen:
Screens in order – KCNQ2 pot, KCNQ2 pot baseline
Cc1cc(Cl)ccc1OCCCC(=O)OCC(=O)c1c(N)n(C)c(=O)n(C)c1=O
  0.7, -0.31
COc1ccc(NC(=S)NNC(=O)Cn2nc(C(F)F)cc2C(F)F)cc1
  1.34, 0.02
O=C(Nc1cc(Cl)ccc1N1CCOCC1)c1cnccn1
  0.03, -0.01

Continued:
Screens in order – KCNQ2 pot, KCNQ2 pot baseline
CCN(CC)CCSc1nc2ccccc2n1Cc1ccccc1
  0.54, 1.25
CC(C)(C)NC(=O)CN(C(=O)C1CSC(=O)C1)c1ccc2c(c1)OCCO2 (centres undefined)
  0.04, 0.34
CC(CC(=O)N(CCC1=CCCCC1)c1c(N)n(Cc2ccccc2)c(=O)[nH]c1=O)c1ccccc1 (centres undefined)
  0.74, -1.43
Cc1ccc(/C=N/NC(=O)c2ccccn2)s1
  0.81, -1.06
CC(C)NC(=O)c1ccc(N(Cc2ccc(Cl)cc2)S(C)(=O)=O)cc1
  1.05, -1.13
CC(=O)N(Cc1ccccc1)c1ncc2c(n1)c(=O)c(C#N)c1ccccn12
  1.15, 0.95
CC(CSc1nnnn1-c1ccccc1)Cn1c(N2CCCC2)nc2c1c(=O)[nH]c(=O)n2C (centres undefined)
  1.14, -1.11
Nc1c(C(=O)OCC2CCCO2)c2nc3ccccc3nc2n1C1CCCCC1 (centres undefined)
  0.16, -0.1
CN(C)S(=O)(=O)N1CCC(CO)(CCc2ccccc2)CC1
  0.38, 0.86
Cc1ccc2nc(N3CCN(C(=O)CCCC(=O)O)CC3)nc(-c3ccccc3)c2c1
  1.63, -1.28
Nn1c(SCC(=O)Nc2ccc(F)cc2F)nnc1-c1cccnc1
  0.01, 1.47
COc1ccc(C(=O)CN2C(=O)NC(C)(c3ccccc3)C2=O)cc1OC (centres undefined)
  0.68, -0.37
C[C@H](C(=O)NCc1ccccc1)C(=O)c1ccccc1
  1.02, -0.16
O=C1CC(c2ccccc2)N1c1ccccc1 (centres undefined)
  0.21, -0.92
COc1ccc(OCC(=O)Nc2ccccc2C(=O)N2CCCC2)cc1
  1.91, -0.99
CCC(C)Cn1c(O)cc2nn(-c3nc4ccccc4s3)c(=O)c-2c1C (centres undefined)
  1.14, -1.79
CCC(CC)c1ncc[nH]1
  0.25, 0.32
CN(CCCNC(=O)CN1C(=O)CC(C)(C)S(=O)(=O)c2ccccc21)C1CCCCC1
  0.02, -0.13
C=CCn1c(SC)nnc1-c1cccc([N+](=O)[O-])c1
  0.22, -1.86
COc1ccc(C2/C(=C(\O)c3cc(C)ccc3C)C(=O)C(=O)N2CCN(C)C)cc1OC (centres undefined)
  0.24, -0.13
O=C(NCc1ccc(N2CCCC2=O)cc1)c1cn(CCc2ccccc2)nn1
  1.45, 1.98
CC(=O)Nc1c(NC(C)C)c2ccccc2oc1=O
  0.17, 1.98
COC(=O)Nc1nnc(Cc2ccc(OC)cc2)s1
  0.63, 0.09
O=C(CCCN1C(=O)c2cccc3cccc(c23)C1=O)N1CCN(c2ccccc2O)CC1
  0.75, 0.78
O=C(Nc1cc2nn(-c3ccccc3)nc2cc1Cl)c1ccco1
  0.99, -0.16
CCOc1ccccc1-n1c(COc2ccc(C)cc2)nnc1SCC(N)=O
  1.3, 1.05
COc1cccc(CNC(=O)CCC2CCCN(Cc3ccc4c(c3)CCO4)C2)c1 (centres undefined)
  0.28, 0.69
CC(C(=O)OCc1nnc(-c2ccccc2)o1)N1C(=O)c2ccccc2C1=O (centres undefined)
  0.58, -0.42
COC(=O)c1ccc(NC(=O)NS(=O)(=O)c2ccc(C)cc2)cc1
  1.36, -0.09
CCOC(=O)C1=C(C)NC(=O)NC1c1ccc(OCCO)c(OC)c1 (centres undefined)
  0.68, 1.16
COCC(C)N=C1NN=C(c2c[nH]c3ccccc23)CS1 (centres undefined)
  0.11, -0.05
c1ccc(-c2nnnn2CCOCCn2nnnc2-c2ccccc2)cc1
  0.14, -0.24
Nc1nc(SCC(=O)NCCOCCO)nc2sc3c(c12)CCCC3
  3.46, -1.43
O=C(Nc1ccnn1C1CCN(CCCC2CCCC2)CC1)c1ccccc1Cl
  1.68, 0.29
COc1cccc(-c2nnc(NC(=O)c3ccccc3Br)o2)c1
  2.92, 0.31
OCCNc1nc(Nc2ccccc2)nc2ccccc12
  3.08, 2.16
COc1ccc(C(=O)N/C(=C\c2cn(S(=O)(=O)N(C)C)c3ccccc23)C(=O)NCCCN2CCOCC2)cc1
  0.21, 1.8
COCCN(CC(=O)Nc1ccccc1)S(=O)(=O)c1ccc(S(=O)(=O)N2CCCC2)cc1
  0.45, 1.16
O=C(O)CCc1c(C(=O)O)[nH]c2ccccc12
  0.74, -0.07
Cc1nc(SCC(=O)Nc2ccc(F)cc2)c2oc3ccccc3c2n1
  0.45, -1.87
Cc1ccc(NC(=O)Cn2cnc3cc([N+](=O)[O-])ccc3c2=O)c(Cl)c1
  0.64, -0.08
O=C(O)c1ccc(N/N=C/c2ccc3c(c2)OCO3)cc1
  1.18, -0.16
CCOC(=O)c1sc(NC(=O)COC(=O)Cn2cnc3ccccc32)c(C(=O)OCC)c1C
  0.36, -0.88
CN1CCN(c2nc3c(c(=O)[nH]c(=O)n3C)n2CCSc2nnnn2-c2ccccc2)CC1
  0.02, -0.52
CCCCC(=O)Nc1nc(C)c(-c2csc(Nc3cc(Cl)ccc3OC)n2)s1
  0.12, 0.28
COc1ccc(NC(=O)c2cccc(NC(=O)C3C4CC5OC(=O)C3C5C4)c2)c(OC)c1 (centres undefined)
  0.34, -0.26
COc1cc2c(cc1OC)CN(C(=O)c1cccc(S(=O)(=O)N(C)C)c1)CC2
  0.71, 0.17
COc1ccccc1NC(=O)CSc1nnnn1C1CCCCC1
  0.36, 0.73
O=c1c2ccccc2c(C=Nc2ccc(O)cc2)c(O)n1-c1nccs1
  0.52, -0.69
COCc1cc(C)nc(SCC(=O)Oc2ccc(Cl)cc2)c1C#N
  2.82, -0.06

Carrying on.
Compound,KCNQ2 pot,KCNQ2 pot baseline
COc1cccc(NC(=O)CNC(=O)c2ccc(C)cc2)c1,0.19,0.26
CC(C)CNC(=O)Cn1nc(C(F)(F)F)c2c1CCCC2,2.94,-1.19
Cc1cc(C)cc(NC(=S)N(C)C)c1,0.02,-0.36
Cn1c(=O)c2c(nc(NCc3ccco3)n2CCc2ccccc2)n(C)c1=O,0.98,1.23
CCO[C@H]1OC(C(=O)O)=C[C@@H](c2coc3ccccc3c2=O)[C@@H]1CCCO,1.47,-3.37
C=CCN(CC=C)CCCOc1ccc(C)cc1OC,0.58,-2.74
CCCCOc1ccc(C2(C)NC(=O)N(C)C2=O)cc1 (centres undefined),1.59,-2.16
Cc1cc(/C=C(\C#N)C(=O)NC2CCCCCC2)c(C)n1C,0.07,0.99
CCN(CC(=O)Nc1c(F)cccc1F)C(=O)c1cccnc1Sc1ccccc1,0.02,0.41
COCCNC(=O)CN(C(=O)Cn1nnc2ccccc21)c1ccccc1,0.67,-0.04
CN(C(=O)c1cccc(C#N)c1)c1nnc(C2CCCO2)s1 (centres undefined),0.12,1.22
CCOC(=O)c1ccc(NC(=O)c2cccnc2)cc1,2.49,-1.59
Cn1ncc2c(Nc3ccc(-c4ccccc4)cc3)ncnc21,0.2,0
Cc1ccc(-c2nnc(NC(=O)c3ccc([N+](=O)[O-])o3)o2)c(C)c1,0.49,1.4
COc1cccc2sc(N3CCN(C(=O)c4ccc([N+](=O)[O-])o4)CC3)nc12,0.04,-0.75
O=C(Nc1nnc(-c2ccco2)o1)c1ccc([N+](=O)[O-])s1,1.04,0.6
O=C(CSc1ncccn1)NCc1ccc(F)cc1,0.06,0.79
Cc1[nH]c2ccccc2c1C(=O)C(=O)NCc1ccco1,0.21,0.21
Cc1ccc(-n2nc3c(c2NC(=O)C2CC2)CS(=O)(=O)C3)cc1C,1.03,0.08
Cc1cccc(CS(=O)(=O)c2ncc(CO)n2C)c1,1.53,1.38
O=c1[nH]c(N/N=C\c2ccc3c(c2)OCO3)nc2ccccc12,0.25,0
Cc1c(C(=O)NC(C)c2ccc(-n3ccnc3)cc2)cccc1[N+](=O)[O-] (centres undefined),1.67,0.44
CC(=O)C(Cc1ccccc1)NC(=O)COC(=O)CCN1C(=O)C2CC=CCC2C1=O (centres undefined),0.26,0.13
Cc1c(C(=O)N2CCN(c3ccc(F)cc3)CC2)oc2c1C(=O)CCC2,0.91,1.2
Cc1ccc(NC(=O)Cc2ccc(Cl)cc2)nc1,0.59,0.71
Cc1cc(C)c2c(CN3CCN(C/C=C/c4ccccc4)CC3)cc(=O)oc2c1,0.01,-2.71
CC(=O)Nc1ccc(S(=O)(=O)N2CCC(C(=O)NCCC(=O)Nc3nccs3)CC2)cc1,1.68,-0.93
Cc1ncoc1C(=O)N1CCCC(C(=O)c2cccc(C(F)(F)F)c2)C1 (centres undefined),0.12,-2.03
Cc1cc(NCCOCCO)n2ncc(-c3ccc(Cl)cc3)c2n1,6.16*,-0.69*
CC(C)C(=O)Nc1nnc(S(=O)(=O)N2c3ccccc3CC2C)s1 (centres undefined),0.8,0.47
O=[N+]([O-])c1ccccc1N/N=C/c1c[nH]c2ccccc12,0.11,-0.08
Brc1cc(Br)c2nc(-c3cccs3)ccc2c1,0.99,-0.22
N#Cc1c(SCC(=O)Nc2cccc(F)c2)sc2c(O)cc(=O)[nH]c12,0.04,0.12
CCOc1ccccc1N(CC(=O)NCCSc1ccccn1)S(=O)(=O)c1ccc(C)cc1,0.36,-2.55
Brc1cc2[nH]cnc2c2ccccc12,3.64,-0.43
Cc1ccc(C(=O)N2N=C3c4ccccc4S(=O)(=O)N3[C@H]2N(C)C)cc1,0.26,-1.86
CCOC(=O)c1c(C)oc2ccc(NS(=O)(=O)c3cccs3)cc12,0.11,-1.17
O=c1c2c(nc3nc(COc4ccccc4)[nH]n13)CCC2,0.03,-1.32
O=C(NC1CCOCC1)C1CCC(=O)N(CCc2cccc(F)c2)C1 (centres undefined),0.37,1.84
CC(C)C(C)NC(=O)COc1ccc(S(=O)(=O)N2CCOCC2)cc1[N+](=O)[O-] (centres undefined),0.04,1.73
CNC(=O)c1csc(-c2ccc(C)cc2)n1,0.71,2.38
CCN1CCN(C(=O)NCc2ccccc2)CC1,1.49,0.41
Cc1ccc2c(ccc[n+]2CC(=O)c2ccccc2)c1,0.4,-0.06
O=C(NN=C1CCN(Cc2ccccc2)CC1)c1cc(Br)ccc1O,0.84,-0.97
COc1cc(C(=O)Nc2nc(-c3ccc(C)cc3)cs2)ccc1OCC(=O)N1CCOCC1,0.07,0.48
Cc1cc(C(=O)CSc2nnnn2-c2ccc(O)cc2)c(C)n1Cc1ccc2c(c1)OCO2,0.04,0.78
O=C(C1CCCN(S(=O)(=O)c2ccccc2[N+](=O)[O-])C1)N1CCCC1 (centres undefined),0.6,-0.28
CN(CC(=O)Nc1ccc2c(c1)OCO2)S(=O)(=O)c1cccs1,0.81,0.67
CC1=CC(C)(C)N(C(=O)CN2C(=O)CCC2=O)c2ccc(C)cc21,0.04,-0.75
COc1ccc(-c2[nH]c(-c3ccc(F)cc3)nc2SCC(=O)NC2CCCC2)cc1,0.45,-2.15
COc1ccc(C(=O)COC(=O)CCc2ccccc2)cc1,0.29,0.35
COC1CCN(C(=O)c2ccc3oc(C(C)C)nc3c2)CC1,1.17,0.63
Cc1ccc(NC(=O)N2CCC(NC(=O)C(C)(C)C)CC2)cc1,0.06,-0.38

4 entries from above, set out differently.
> CN(CC(=O)Nc1ccc2c(c1)OCO2)S(=O)(=O)c1cccs1
- KCNQ2 pot: 0.81
- KCNQ2 pot baseline: 0.67
> CC1=CC(C)(C)N(C(=O)CN2C(=O)CCC2=O)c2ccc(C)cc21
- KCNQ2 pot: 0.04
- KCNQ2 pot baseline: -0.75
> COc1ccc(-c2[nH]c(-c3ccc(F)cc3)nc2SCC(=O)NC2CCCC2)cc1
- KCNQ2 pot: 0.45
- KCNQ2 pot baseline: -2.15
> COc1ccc(C(=O)COC(=O)CCc2ccccc2)cc1
- KCNQ2 pot: 0.29
- KCNQ2 pot baseline: 0.35
